TRPML1 agonist – qHTS for Agonists of the Human Mucolipin Transient Receptor Potential 1 (TRPML1); TRPML1-expressing cells, Ca2+ dye fluorescence, FDSS; host cell line not named in the record; reference of the full effect not given here; activation, % (concentration not given with the values); 410,000 tested, 0.12% active; Mucolipin-1 (Homo sapiens), Q9GZU1; AID 624414, 2012; in the data active = activation above about 50%; inconclusive = about 30% to 50%; inactive = below about 30%; further: 0% is about no effect; the text of the record puts the active cut at 80%
Target sequence (Q9GZU1 whole entry, looked up): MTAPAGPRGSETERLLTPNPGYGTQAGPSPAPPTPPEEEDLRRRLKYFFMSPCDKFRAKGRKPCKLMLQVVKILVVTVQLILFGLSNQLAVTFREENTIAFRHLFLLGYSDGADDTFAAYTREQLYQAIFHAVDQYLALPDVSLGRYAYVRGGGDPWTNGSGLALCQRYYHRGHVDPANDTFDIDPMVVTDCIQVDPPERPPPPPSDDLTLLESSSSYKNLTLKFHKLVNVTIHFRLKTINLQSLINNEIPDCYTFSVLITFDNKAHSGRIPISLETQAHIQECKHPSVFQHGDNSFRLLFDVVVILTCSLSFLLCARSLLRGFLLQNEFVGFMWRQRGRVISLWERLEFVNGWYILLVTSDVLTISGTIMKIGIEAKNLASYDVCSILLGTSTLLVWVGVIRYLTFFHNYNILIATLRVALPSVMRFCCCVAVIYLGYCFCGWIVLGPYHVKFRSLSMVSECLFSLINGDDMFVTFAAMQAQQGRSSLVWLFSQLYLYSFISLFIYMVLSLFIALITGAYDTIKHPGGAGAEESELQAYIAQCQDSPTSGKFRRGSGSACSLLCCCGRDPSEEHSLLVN
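TRPML1-DL cells, Tet-induced overnight (~16 h, 37 degrees C), loaded 45-90 min at room temperature with Ca8 no-wash calcium dye plus quencher. FDSS fluorescence: 10 s baseline, compound pin-transfer, 110 s agonist read, then EC80 54-4 (4uM final) and 110 s antagonist read.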
gsp antag – qHTS for Antagonists of gsp, the Etiologic Mutation Responsible for Fibrous Dysplasia/McCune-Albright Syndrome: qHTS. gsp-mutant cells, cAMP HTRF, 30 min; control for the full effect not named in the record. AID 624288, 2012. 340,000 tested, 0.4% active. Potency, µM (top dose mostly 76.9 µM), inactives show top-dose activity change, negative = inhibition, actives largely listed as inhibitors; active = falling curve of any shape with a large fitted effect; inconclusive = falling curve, mostly with a smaller effect; inactive = flat or rising curve; cell line not stated here;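 further: intracellular cAMP measured with PDE inhibitor Ro 20-1724 present during compound exposure; potency means the concentration at half of the fitted maximal effect; on the % scale 0 is the no-effect control and ±100 the full control effect; nearly all actives have a fitted effect of over 65% in size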
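HTRF cAMP measurement after 30 min RT detection following 30 min, 37C compound treatment alongside […] (added as 300 uM solution) in G418-selected cells seeded at 2000/well and grown 16–24 h.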
TRPML1 blocker – qHTS for Inhibitors of the Human Mucolipin Transient Receptor Potential 1 (TRPML1). AID 624415, 2012. TRPML1-inducible cells, Ca2+ dye fluorescence, FDSS; active compounds read low; inhibition of EC80 agonist-evoked calcium signal. 390,000 tested, 0.02% active. activity change, negative = inhibition, % (concentration not given with the values). Mucolipin-1 (Homo sapiens), Q9GZU1; in the data active means activity change below about -50%; inconclusive means about -30% to -50%; inactive means above about -30%;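 further: stimulus is agonist 54-4 at its EC80 concentration; on the % scale 0 is the no-effect control and ±100 the full control effect; the text of the record puts the active cut at -80%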
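TRPML1-DL cells, Tet-induced overnight (~16 h, 37 °C) at 1,500 cells/well, were loaded with Ca8 no-wash dye plus quencher for 45-90 min at room temperature. Compounds were pinned during FDSS kinetic reading; agonist 54-4 at EC80 (4 uM final) then added.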
Menin-MLL FL inh – qHTS Assay for Inhibitors Targeting the Menin-MLL Interaction in MLL Related Leukemias: Competition With Fluorescein Labeled MLL-derived Peptide; 290,000 tested, under 10 active; FP activity change, % at 61.4 µM; Fluorescence polarization, fluorescein-MLL peptide displacement from menin; inconclusive = falling polarisation curve, or a change in total fluorescence; inactive = total fluorescence flat and polarisation flat or rising; no compound was filed as active; the % refers to the polarisation; negative = inhibition;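 further: % of control where 0% means no effect; inhibitors lower the polarisation; unlabelled MLL peptide was the positive control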
gsp ag – qHTS for Agonist of gsp, the Etiologic Mutation Responsible for Fibrous Dysplasia/McCune-Albright Syndrome: qHTS | AID 624287, 2012 | 340,000 tested, 0.13% active | Potency, µM (titrated, usually from 76.9 µM), for inactives: top-dose activation (cAMP increase), actives largely listed as activators | gsp mutant cells, cAMP HTRF, 30 min; control for the full effect not named in the record; active = well fitted activation curve with a large enough effect; inconclusive = small, poorly fitted or top-dose-only effect, or another doubt; inactive = no such curve, though single readings can be large or run the other way; cell line not stated here;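 further: phosphodiesterase inhibitor Ro 20-1724 added with compounds to block cAMP breakdown; potency means the concentration at half of the fitted maximal effect; nearly all actives have a fitted effect of over 60% in size; about a fifth of the inactives were tested at one dose only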
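Cells in DMEM/10% FBS with G418 were pretreated with compounds in DMSO plus […] (300 uM stock) for 30 min at 37C. cAMP was measured by HTRF (cAMP-d2 plus anti-cAMP antibody-K) after 30 min at room temperature.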
ClpP mod – qHTS Assay for Activators of ClpP | ATP-dependent Clp protease proteolytic subunit (Bacillus subtilis (strain 168)), P80244 | purified B. subtilis ClpP, FRET peptide cleavage, 20 min | Potency, µM (titrated, usually from 57.5 µM), without a hit: top-dose activity change, negative = active | 340,000 tested, 1.9% active; active = well fitted falling curve with a large enough effect; inconclusive = small, poorly fitted or top-dose-only effect; inactive = no such curve, though single readings can be large or run the other way; further: potency means the concentration at half of the fitted maximal effect; the source files actives as falling curves though it sought activators and does not explain the sign; nearly all actives have a fitted effect of over 65% in size; many hits overshoot -100%
Target sequence (P80244 whole entry, looked up): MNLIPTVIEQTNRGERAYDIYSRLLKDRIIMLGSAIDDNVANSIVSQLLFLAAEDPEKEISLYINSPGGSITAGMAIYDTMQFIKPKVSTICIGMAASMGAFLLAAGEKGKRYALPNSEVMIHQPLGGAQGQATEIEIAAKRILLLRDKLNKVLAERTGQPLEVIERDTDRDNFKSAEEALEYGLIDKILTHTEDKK
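Buffer: 100 mM Tris/HCl pH8, 100 mM KCl, 0.05% low protease BSA, 2.5% glycerol, 0.01% Tween-20. ClpP 10 microg/mL final; 20 min RT; delta FRET normalized to ADEP and DMSO controls.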
Numbers without * were called inactive; ? = inconclusive; nt = not tested or not shown; [ ] = dose if it differs, or a comment.

Value order: TRPML1 agonist	gsp antag	TRPML1 blocker	Menin-MLL FL inh	gsp ag	ClpP mod
- CCN(CC)CCN=C1CCCc2ccccc2N1
    -0.7	9%	19	0.6	-15%	0.4%
- NC(=O)C1CCN(C(=O)Cn2cccc2C(=O)c2ccccc2)CC1
    -1.0	-7%	9	3.5	32%	0.1%
- CC(=O)N1CCCc2cc(S(=O)(=O)Nc3ccc(Cl)cc3F)ccc21
    0.4	nt	0	nt	nt	-3.5%
- Cc1cccc(C)c1NC(=O)CSc1nnc([C@H](C)NC(=O)OC(C)(C)C)o1
    -0.3	1%	9	2.2	-59%[inhibitor]	-3.5%
- O=C(NCCc1ccccc1)C1CCC(Cn2c(=O)c3ccccc3n(Cc3cccc(F)c3)c2=O)CC1 (centres undefined)
    -0.2	3%	8	4.2	27%	2.6%
- COc1ccc(C2C3=C(N=C4SCC(=O)N42)c2ccccc2CC3)cc1 (centres undefined)
    -0.2	-5%	3	4.2	30%	-3.4%
- C/C(=N\NC1=NCCN1)c1ccc(Cl)cc1
    1.9	12%	-8	-8.2	7%[15.4 µM]	nt
- CC(NC(=O)c1ccc(NS(C)(=O)=O)cc1)c1ccccc1 (centres undefined)
    -1.4	7%	-12	1.0	-41%[inhibitor]	-2.4%
- COc1cccc(C(=O)NC2CCCc3c2cnn3-c2ccc(C)c(C)c2)c1OC (centres undefined)
    -1.9	-8%	17	nt	?	-1.6%
- CC1CCCCC1NC(=O)CO/N=C/c1ccccc1OC(F)F (centres undefined)
    -0.1	-7%	5	7.5	-12%	nt
- COC(=O)c1scc(-c2ccccc2)c1S(=O)(=O)Nc1cccc(C)c1C
    1.2	nt	3	nt	nt	-0.2%
- Cc1ccc(C)c(NC(=O)c2ccc3c(c2)N(Cc2ccc(F)cc2)C(=O)CS3=O)c1 (centres undefined)
    -0.5	-4%	3	0.0	-1%	1.1%
- Cc1ccc(NC(=O)CN2C(=O)S/C(=C\c3ccc(C(=O)O)cc3)C2=O)cc1
    nt	3%	nt	nt	-12%	0.2%
- CCCCn1c(N)c(N(CCOC)C(=O)c2cc(C)oc2C)c(=O)[nH]c1=O
    -0.8	10%	-15	nt	-23%	-2.0%
- COc1ccc2oc(=O)c(C(=O)Nc3cccc(C(=O)O)c3)cc2c1
    0.1	nt	-4	nt	nt	-5.0%
- Cc1nn(CC(=O)NC2CCC(C)CC2)c(C)c1[N+](=O)[O-] (centres undefined)
    0.3	10%	-15	nt	-22%	-0.8%
- CCCCNC1c2ccccc2C(=O)N1Cc1ccccc1 (centres undefined)
    0.2	10%	16	-0.5	12%	nt
- CN(C)S(=O)(=O)c1cc(NC(=O)CSc2cccc[n+]2[O-])ccc1Cl
    0.0	15%	-11	nt	3%	-0.4%
- CCOc1ccccc1NC(=O)c1cc(S(=O)(=O)N2CCC3(CC2)OCCO3)ccc1F
    -0.5	-21%	36	-0.5	-12%	0.9%
- COC(=O)c1cc(C(=O)NC(C)C2CC3CCC2C3)cc([N+](=O)[O-])c1 (centres undefined)
    2.6	-22%	29	nt	?	nt
- Cc1ccc(S(=O)(=O)N2CCN(C(=O)CN3C(=O)c4ccc([N+](=O)[O-])cc4C3=O)CC2)cc1C
    0.0	4%	21	nt	5%	-0.5%
- CCCS(=O)(=O)N1CCCC(C(=O)Nc2ccc3c(c2)CCC3)C1 (centres undefined)
    1.0	-2%	-1	nt	-37%[inhibitor]	0.8%
- O=C(CN1C(=O)c2ccccc2S1(=O)=O)c1ccc2c(c1)OCCCO2
    1.1	-4%	-9	0.4	28%[15.4 µM]	nt
- O=C(Nc1ccc(F)cc1)C(c1ccccc1)N1CCN(C(=O)c2ccco2)CC1 (centres undefined)
    0.2	4%	2	1.1	-4%	0.2%
- Cn1nc(C(=O)NNC(=O)c2cccc(Cl)c2)c2ccccc2c1=O
    0.2	-10%	4	nt	14%[15.4 µM]	0.4%
- COc1ccccc1-c1cc(C(F)(F)F)nc(N2CCCC2)n1
    2.2	-18%	-13	4.2	17%	?
- Cc1ccc(N(C(=O)Cc2cccs2)C(C(=O)NC2CCCC2)c2ccncc2)cc1 (centres undefined)
    1.1	-5%	6	19	-50%[inhibitor]	-0.3%
- Cc1ccc(NC(=O)Cn2c(-c3cncs3)nc3ccccc32)c(Br)c1
    1.9	nt	1	nt	nt	-18%
- O=C(C1CCN(C2CC(=O)N(c3ccc(Cl)cc3)C2=O)CC1)N1CCOCC1 (centres undefined)
    -0.3	8%	-13	-0.5	-2%	-5.3%
- COc1ccc(C(=O)NCCCOC(=O)c2ccc(OC)cc2)cc1
    -0.6	-3%	-11	-2.1	0%	0.1%
- CN(C(=O)COC(=O)c1ccccc1Cc1ccccc1)C1CCS(=O)(=O)C1 (centres undefined)
    -0.8	-9%	-6	nt	3%	0.0%
- CN(Nc1cccc(Cl)c1)c1cccc(Cl)c1
    4.4	?	8	nt	-26%	nt
- CCOC(=O)N1CCC(n2c(=S)[nH]c3cc(OCC)c(OCC)cc3c2=O)CC1
    0.0	3%	5	6.7	26%	-1.1%

Pulled by structure from the entries so far (2):
Value order: TRPML1 agonist	gsp antag	TRPML1 blocker	Menin-MLL FL inh	gsp ag	ClpP mod
- CC1CCCCC1NC(=O)CO/N=C/c1ccccc1OC(F)F (centres undefined)
    -0.1	-7%	5	7.5	-12%	nt
- NC(=O)C1CCN(C(=O)Cn2cccc2C(=O)c2ccccc2)CC1
    -1.0	-7%	9	3.5	32%	0.1%

Sorted by molecular weight (highest first): part of the list above.
Value order: TRPML1 agonist	gsp antag	TRPML1 blocker	Menin-MLL FL inh	gsp ag	ClpP mod
- CCOc1ccccc1NC(=O)c1cc(S(=O)(=O)N2CCC3(CC2)OCCO3)ccc1F
    -0.5	-21%	36	-0.5	-12%	0.9%
- Cc1ccc(N(C(=O)Cc2cccs2)C(C(=O)NC2CCCC2)c2ccncc2)cc1 (centres undefined)
    1.1	-5%	6	19	-50%[inhibitor]	-0.3%
- Cc1ccc(NC(=O)Cn2c(-c3cncs3)nc3ccccc32)c(Br)c1
    1.9	nt	1	nt	nt	-18%
- O=C(Nc1ccc(F)cc1)C(c1ccccc1)N1CCN(C(=O)c2ccco2)CC1 (centres undefined)
    0.2	4%	2	1.1	-4%	0.2%
- CC(=O)N1CCCc2cc(S(=O)(=O)Nc3ccc(Cl)cc3F)ccc21
    0.4	nt	0	nt	nt	-3.5%
- O=C(CN1C(=O)c2ccccc2S1(=O)=O)c1ccc2c(c1)OCCCO2
    1.1	-4%	-9	0.4	28%[15.4 µM]	nt
- COc1ccc(C2C3=C(N=C4SCC(=O)N42)c2ccccc2CC3)cc1 (centres undefined)
    -0.2	-5%	3	4.2	30%	-3.4%
- COC(=O)c1cc(C(=O)NC(C)C2CC3CCC2C3)cc([N+](=O)[O-])c1 (centres undefined)
    2.6	-22%	29	nt	?	nt
- Cc1nn(CC(=O)NC2CCC(C)CC2)c(C)c1[N+](=O)[O-] (centres undefined)
    0.3	10%	-15	nt	-22%	-0.8%
- CCN(CC)CCN=C1CCCc2ccccc2N1
    -0.7	9%	19	0.6	-15%	0.4%

Rows are unselected; overall some 2.1% were active at least once.
